Screens as filed in PubChem.
Rango complex inh = prevents formation of the Rango-importin beta complex | 340,000 tested, 0.031% active | Q14974 | Potency, µM (top dose mostly 92.2 µM), for the others: top-dose inhibition of complex formation | Rango CFP/YFP FRET sensor + importin beta, 45 min; active = rising FRET ratio curve, often small or poorly fitted; inconclusive = mostly compound fluorescence or quenching in the first reads; inactive = flat curves in all reads;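 further: potency means the concentration at half of the fitted maximal effect; 0% = DMSO wells and 100% = buffer wells lacking importin beta; nearly all actives have a fitted effect of over 15% in size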
Target sequence (Q14974 whole entry, looked up): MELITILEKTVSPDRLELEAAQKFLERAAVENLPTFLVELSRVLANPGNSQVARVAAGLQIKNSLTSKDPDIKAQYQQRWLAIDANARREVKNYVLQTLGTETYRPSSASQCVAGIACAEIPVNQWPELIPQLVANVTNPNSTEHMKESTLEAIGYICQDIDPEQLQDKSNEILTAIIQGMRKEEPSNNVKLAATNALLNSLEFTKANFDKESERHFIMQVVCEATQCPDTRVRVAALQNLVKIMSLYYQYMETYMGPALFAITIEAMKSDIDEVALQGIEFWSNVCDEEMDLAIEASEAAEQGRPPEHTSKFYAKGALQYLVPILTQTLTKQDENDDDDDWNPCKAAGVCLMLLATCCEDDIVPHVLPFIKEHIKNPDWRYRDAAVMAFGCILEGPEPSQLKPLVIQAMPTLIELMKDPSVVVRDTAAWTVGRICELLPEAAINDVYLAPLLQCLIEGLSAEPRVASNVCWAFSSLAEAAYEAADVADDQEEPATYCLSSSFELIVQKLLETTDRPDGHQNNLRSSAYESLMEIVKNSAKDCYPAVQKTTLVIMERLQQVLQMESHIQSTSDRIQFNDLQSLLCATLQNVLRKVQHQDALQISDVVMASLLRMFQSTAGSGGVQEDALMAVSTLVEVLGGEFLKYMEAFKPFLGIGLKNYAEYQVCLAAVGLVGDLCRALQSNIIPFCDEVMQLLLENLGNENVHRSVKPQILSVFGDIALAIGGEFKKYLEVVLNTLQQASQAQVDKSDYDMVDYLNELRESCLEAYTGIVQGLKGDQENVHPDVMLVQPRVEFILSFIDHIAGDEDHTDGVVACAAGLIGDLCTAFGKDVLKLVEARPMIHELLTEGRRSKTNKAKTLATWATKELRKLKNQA
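Inhibition scored from the CFP 486 nm/YFP 530 nm FRET ratio 45 min after adding 0.125 microM importin beta to 50 nM Rango biosensor preincubated 5 min with compound (room temperature, PBS with DTT, Tween-20, BSA). No-importin wells as positive control.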
Rango dissoc inh = prevents RanGTP from dissociating the Rango-importin beta complex. O95149+P62826. Biochemical FRET Rango-importin beta, RanGTP-induced dissociation. Potency, µM (highest dose often 46.1 µM), for inactives: at the highest dose activity change, negative = inhibition. 340,000 tested, 0.071% active. AID 540253; active means falling FRET ratio curve, often poorly fitted, with flat reads before Ran was added; inconclusive means other falling curves, or compound fluorescence or quenching; inactive means flat or rising ratio curve;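 further: potency means the concentration at half of the fitted maximal effect; % of control where 0% means no effect; nearly all actives have a fitted effect of over 45% in size; -100% = wells without RanGTP and RCC1; the record marks most hits as doubtful in a second field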
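FRET read at 45 min, room temperature: inhibitors block the CFP/YFP signal rise when RanGTP (0.6 uM Ran, 2 mM GTP, 0.2 uM RCC1) frees Rango (0.1 uM) from importin beta (0.25 uM). Pre-read after 5 min compound exposure flags interference.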
GLA inh pH 4.5 = alpha-galactosidase A (human) inhibition, pH 4.5. P06280. purified enzyme, 4-MU-alpha-Gal fluorescence, pH 4.5. activity change, negative = inhibition, % at 105 µM. 230,000 tested, under 10 active; inconclusive = small, poorly fitted or top-dose-only inhibition, or a rising curve; inactive = flat fitted curve, though single readings scatter; no compound was filed as active;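 further: 0% = full activity with enzyme and -100% = basal without enzyme; dose as in the result columns while the protocol names 77 µM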
miR-21 FLuc = miR-21 reporter, rising signal. 340,000 tested, under 10 active. HeLa miR-21 FLuc reporter, luciferase, 48 h. Potency, µM (highest dose often 38.3 µM), inactives show at the top dose reporter change, positive = more light; active = well fitted rising curve with a large enough effect; inconclusive = small, poorly fitted or top-dose-only effect; inactive = no such curve, though single readings can be large or run the other way;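 further: % of control where 0% means no effect; miR-21 action dims this reporter so a rising signal means less miR-21 action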
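Using DMEM plus 10% FBS, HeLa miR-21-FLuc cells are incubated with test compounds (final up to about 40uM) for 48 hours; firefly luciferase signal is then imaged following reagent-mediated lysis.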
The depositor's hits bear a star; ? = inconclusive; . = no result given. Only part of the results is shown; rates above refer to the full screens.

Rango complex inh | Rango dissoc inh | GLA inh pH 4.5 | miR-21 FLuc | compound
1.5% | -18% | 5 | -3% | COc1ccc(C(C)N2CC34C=CC(O3)C(C(=O)O)C4C2=O)cc1 (stereo not given)
-1.1% | -9% | 0 | -7% | COCC(=O)NC1CCN(S(=O)(=O)c2ccc(C(=O)O)cc2)CC1
-1.2% | -3% | 2 | -70% | Cc1cc(C)c(C#N)c(SCC(=O)Nc2ccc3c(c2)OCO3)n1
0.2% | -3% | -3 | -1% | Cc1ccccc1C(=O)NC1CCSC1=O (stereo not given)
4.5% | 0% | -5 | -7% | CCc1ccccc1NC(=O)Cn1nnc(-c2cccs2)n1
-2.5% | -18% | -2 | -9% | O=C(O)C1CCCCC1C(=O)NCc1ccncc1 (stereo not given)
2.4% | 17% | . | 1% | CC(=O)Nc1ccc(NS(=O)(=O)c2ccccc2)c2ccccc12
4.8% | -6% | 7 | -5% | CCCn1c(=O)c2c(c3ccccc31)OCC(=O)N2
-4.7% | -12% | 9 | 8% | COc1cccc(N2CCN(CC(=O)Nc3ccc(-n4cnnn4)cc3)CC2)c1
? | -7% | . | 28% | CC1=C/C(=C(/c2cc(C)c(O)c(Br)c2)c2ccccc2S(=O)(=O)O)C=C(Br)C1=O
-3.9% | -4% | -10 | -24% | N#Cc1c(NC(NC(=O)c2ccco2)C(=O)c2ccccc2)sc2c1CCCC2 (stereo not given)
-2.0% | 5% | 1 | -4% | O=C(CCc1nc2ccccc2c(=O)[nH]1)OCC(=O)c1ccc(C2CCCCC2)cc1
5.3% | -16% | 5 | 8% | CC(C)c1cccc(C(C)C)c1NC(=O)CCl
2.6% | 7% | 5 | 2% | C=CCn1c(SCC(=O)Nc2ccc(C)cc2C)nnc1-c1cccnc1
6.4% | 9% | 6 | -10% | COc1ccc(N2CCN(C(=O)CCNS(=O)(=O)c3ccc4c(c3)CCC(=O)N4)CC2)cc1
-1.0% | 0% | -9 | -1% | CCOC(=O)C1=C(C)n2c(s/c(=C3\C(=O)Nc4ccccc43)c2=O)=NC1c1ccc(OC)cc1 (stereo not given)
0.5% | 2% | 0 | 4% | Cn1nc(C(F)(F)F)c(/C=N/OC(=O)c2ccccc2)c1Sc1ccc(Cl)cc1
5.2% | -3% | -6 | -3% | O=C(NCC1CCCO1)c1ccc(NC(=O)C2CCCCC2C(=O)O)cc1 (stereo not given)
3.0% | -6% | -7 | 0% | CC1CCN(CC(O)COC2CCC(C(C)(C)C)CC2)CC1 (stereo not given)
-0.1% | 21% | -2 | 1% | Cc1ccc(S(=O)(=O)N(C)c2ccc(C(=O)N3CCc4ccccc4C3)cc2)cc1
? | ? | . | . | CC1CCN(c2ccc3c(c2)S(=O)(=O)c2cccc(C(=O)NCc4cccc(F)c4)c2C3=O)CC1
0.6% | -3% | -1 | -16% | CCN(CC)C(=O)Sc1cccc2cccnc12
-4.6% | 4% | -1 | -14% | C/C=C/c1ccc(OCCCCOc2ccccc2F)c(OC)c1
-0.1% | -4% | 8 | -5% | FC(F)(F)c1cnc(Oc2ccccc2-c2nnc(-c3ccc(Cl)cc3)o2)c(Cl)c1
0.1% | 6% | . | . | NC(N)=Nc1ccc(C=C2C=Cc3ccccc32)cc1
-1.2% | 1% | . | . | CCn1c(SC(C)C(=O)Nc2ccc(N3CCOCC3)cc2)nnc1C1CC1 (stereo not given)
-2.9% | -12% | . | . | Cc1ccc(NC(=O)CSCC(=O)N(CCC(C)C)c2c(N)n(Cc3ccccc3)c(=O)[nH]c2=O)cc1
10% | 4% | 4 | -36% | COc1ccc(C(=O)CCc2nc3ccccc3s2)cc1
-1.7% | 1% | -17 | -1% | O=C(Cc1ccccc1)N/N=C/c1cccc([N+](=O)[O-])c1
1.3% | -1% | -3 | 1% | COc1cc(CNC(C)(C)C)ccc1OCC(=O)NC(C)(C)C
1.6% | 10% | . | 0% | O=S(=O)(NC1CCCCC1)c1cccs1
-0.4% | 2% | -24 | -5% | CC(=O)c1cnc(SCCN2C(=O)c3ccccc3C2=O)nc1C
2.3% | 0% | -5 | -2% | CC(C)Oc1ccccc1/C=N/Nc1ccccc1[N+](=O)[O-]
4.0% | -23% | -4 | -7% | COc1ccc(CCNc2nc(-c3sc(N)nc3C)cs2)cc1OC
0.4% | -12% | . | . | CC(C)(C)c1ccc(C(=O)NCC(=O)NCC(C)(C)N2CCOCC2)cc1
4.6% | 17% | . | -3% | Cc1ccc(NC(=O)C2CCN(S(=O)(=O)c3ccc4[nH]c(=O)ccc4c3)CC2)c(C)c1
-0.5% | -8% | -2 | 17% | Cc1ccc(NC2=NC3(CCCC3)N=C(N)N2)c(C)c1
0.7% | 17% | . | -10% | CCOC(=O)c1ccc(NC(=O)c2ccc[n+]([O-])c2)cc1
0.2% | 1% | -6 | -17% | O=C(CSc1nc(C2CC2)nc2ccccc12)N1c2ccccc2Sc2ccc(C(F)(F)F)cc21
? | -12% | . | 1% | CN1C(=O)CSC1=Nc1cccc(C(=O)O)c1
? | -2% | 1 | 10% | COc1cccc(/C=N/NC(=O)CSCC(=O)Nc2ccccc2)c1O
-0.7% | 8% | -4 | -3% | COC(=O)CC1C(=O)NCCN1C(=S)Nc1cccc(C)c1 (stereo not given)
0.5% | -5% | . | -9% | Cc1ccc(N(C(=O)CNC(=O)c2ccco2)C(C(=O)NC2CCCCC2)c2cccnc2)cc1 (stereo not given)
-0.5% | -7% | -3 | -7% | N#CCCN1CCN(C(=S)c2ccc(-c3cc(Cl)ccc3Cl)o2)CC1
-0.2% | 1% | . | . | CC(Sc1nnc(-c2cccs2)n1C1CC1)C(=O)NCC1CCCO1 (stereo not given)
? | ? | . | . | CCN(CC)c1ccc(S(=O)(=O)N2CCOCC2)cc1NC(=O)COC(=O)/C=C/c1ccc(O)c(OC)c1
-1.4% | 12% | 3 | 4% | COC(=O)c1ccccc1Sc1ncnc2onc(C)c12
? | 2% | -1 | 6% | O=C(CN(CCc1ccccc1)C(=O)CNS(=O)(=O)c1ccc(F)cc1)NCc1ccco1
-0.7% | -1% | . | . | O=S(=O)(c1cccs1)N1CCC2(CC1)OCCN2S(=O)(=O)c1ccccc1
-0.3% | 3% | -3 | -37% | COc1ccc(-c2nn(-c3ccccc3)cc2CO)cc1

(continued)
Rango complex inh | Rango dissoc inh | GLA inh pH 4.5 | miR-21 FLuc | compound
2.7% | -15% | . | . | O=C(O)c1cc([N+](=O)[O-])ccc1NCc1ccccn1
0.6% | -3% | . | . | O=C(CCSc1ccccc1)NNC(=O)c1ccccc1F
2.6% | 4% | -10 | -1% | CN1CC(=O)N(CC(=O)N2CCC(Cc3ccccc3)CC2)C1=O
. | . | -7 | 5% | O=C(CSc1nncn1-c1ccccc1)Nc1cccc(S(=O)(=O)N2CCCCC2)c1
-1.5% | -13% | . | 10% | CC(C)(C)C1COc2ccccc2N1C(=O)c1ccccc1Cl (stereo not given)
-0.9% | 0% | . | 20% | COc1ccc(CCNC(=O)c2cc(=O)c3cc(C)ccc3o2)cc1OC
1.0% | -9% | -1 | -11% | Cc1cccc(-c2nc(C)cc(=O)[nH]2)c1
-3.0% | -13% | . | . | Cc1cc(SCC(=O)N2CCN(C(=O)c3ccco3)CC2)c(C)cc1Br
3.2% | 7% | . | -31% | COc1ccc(Nc2ccc(Cl)nn2)cc1
-0.2% | 5% | -8 | -8% | CCC(=O)Nc1cccc(SC)c1
-1.2% | -12% | -4 | 0% | COc1ccccc1-c1cc(C(=O)N/N=C/C=C/c2ccccc2[N+](=O)[O-])c2ccccc2n1
-0.1% | 6% | . | -37% | CSc1ccccc1NC(=O)c1cc(-c2ccco2)on1
-0.1% | 4% | 4 | -2% | CCCC1=NN(C(=O)Cc2ccc([N+](=O)[O-])cc2)C(O)(C(F)(F)F)C1 (stereo not given)
4.6% | 6% | . | 9% | COc1cccc(NC(=O)CN2C(=O)CSc3ccc(S(=O)(=O)N4CCCCC4)cc32)c1
0.1% | -22% | 3 | -4% | CC(C)Cc1oc(C(=O)O)cc1CN
-2.3% | -6% | 5 | -1% | CN=C1SC(CC(=O)Nc2ccccc2F)C(=O)N1C (stereo not given)
-1.0% | -11% | -9 | 1% | CC(C)CNc1nc(NC(C)(C)C)nc(Oc2ccc(=O)[nH]n2)n1
0.4% | 2% | . | -17% | CCOC(=O)C1CCCN(C(=O)c2cc(COc3ccc(C)nc3)on2)C1 (stereo not given)
2.3% | 2% | . | 1% | COc1ccc(-n2nc(C(=O)NCC(=O)N3CCC(C(N)=O)CC3)c3ccccc3c2=O)cc1
? | -14% | . | . | CCN1C[C@@H]2[C@@H]3C(=O)N(C)C(=O)[C@@H]3[C@](CC)(C(=O)OC)N2C1=NCc1ccccc1
2.8% | -10% | 1 | -44% | COCCn1c(C)cc(C(=O)CSc2nc3ccccc3o2)c1C
3.4% | 7% | 10 | -42% | COCCCNC(=O)/C=C/c1ccc(Cl)cc1Cl
-0.5% | -6% | 6 | 1% | CCCN(CCO)CCCc1ccccc1
-2.0% | 19% | -4 | -1% | CC(C)OC(=O)Nc1ccc(-c2ccc(NC(=O)OC(C)C)cc2Cl)c(Cl)c1
-0.5% | 0% | 0 | -10% | O=C(CSc1ccc2nnc(-c3ccccn3)n2n1)Nc1ccc2c(c1)OCCO2
? | ? | -3 | 1% | Cc1cc(/C=C2/NC(=O)NC2=O)c(C)n1-c1ccncc1
1.5% | 4% | -2 | -4% | COc1ccc(NC(=O)Cn2c(=O)sc3ccccc32)cc1
3.1% | 4% | 2 | -55% | COc1ccc(C(=O)NCCSc2ccccc2)cc1OC
-0.9% | 2% | . | . | CC1CN=C(c2ccccc2)O1 (stereo not given)
-3.2% | 2% | 6 | 0% | CCOC(=O)CSc1nnc(CNC(=O)c2ccc(OC)cc2)n1C1CCCCC1
1.2% | -10% | . | . | O=C(Cn1cnc2c(OCc3ccccc3)ncnc21)NCc1ccc2[nH]ccc2c1
-0.6% | -3% | -4 | -3% | CCN(C(=O)COC(=O)c1ccc(OC)c(S(=O)(=O)N2CCCc3ccccc32)c1)C1CCS(=O)(=O)C1 (stereo not given)
? | -4% | 4 | 1% | COc1ccc(CCNC(=O)CSc2nc(O)c(C(C)C)c(=O)[nH]2)cc1OC
-0.1% | 7% | . | -5% | COc1ccc(-c2cc(C)no2)cc1S(=O)(=O)NCCCN1CCCCCC1
-4.6% | 8% | . | -2% | C=CCn1c(=O)c(C(=O)NCc2ccccc2)c(O)c2ccccc21
4.3% | 1% | . | 4% | O=S(=O)(Oc1ccc(C(=S)N2CCOCC2)cc1)c1ccc(Cl)cc1
-1.5% | -5% | -5 | 18% | CCC(=O)Nc1ccc(S(=O)(=O)Nc2cccc(C)c2)cc1OC
-0.4% | 1% | 2 | 14% | COc1ccc(/C(O)=C2\C(=O)C(=O)N(CCN(C)C)C2c2cc(OC)c(OC)c(OC)c2)c(C)c1 (stereo not given)
